GLP-1R agonist: agonists of human GLP-1 receptor; hit rate 0.007% among 380,000; AID 624172; Potency, µM (titrated, usually from 45.6 µM), for inactives: top-dose activation, hits mostly activators; P43220; HEK293 GLP-1R CRE-luciferase, luminescence, 4-6 h; cells express a hypersensitive GLP-1R form; note: potency is the fitted concentration of half-maximal effect; % of control where 0% means no effect
Target sequence (P43220 whole entry, looked up): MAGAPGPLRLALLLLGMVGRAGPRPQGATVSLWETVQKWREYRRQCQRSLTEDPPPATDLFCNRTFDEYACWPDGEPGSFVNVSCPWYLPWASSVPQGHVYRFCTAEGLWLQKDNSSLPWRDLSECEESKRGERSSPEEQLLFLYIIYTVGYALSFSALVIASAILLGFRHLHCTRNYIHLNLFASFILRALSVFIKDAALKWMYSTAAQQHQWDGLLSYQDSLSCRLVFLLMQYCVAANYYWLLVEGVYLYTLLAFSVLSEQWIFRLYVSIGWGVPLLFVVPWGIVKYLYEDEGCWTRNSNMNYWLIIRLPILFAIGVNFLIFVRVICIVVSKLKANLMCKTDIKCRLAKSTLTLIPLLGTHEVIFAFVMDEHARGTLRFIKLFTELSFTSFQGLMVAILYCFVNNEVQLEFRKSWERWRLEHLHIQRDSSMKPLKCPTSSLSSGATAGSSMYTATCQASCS
DRD3 antagonist: D3 dopamine receptor (human) antagonism. P35462. max response, negative = inhibition, %. D3R cells, DiscoveRx beta-arrestin luminescence, antagonist mode; active compounds read low. hit rate 2.5% among 360,000; in the data active = max response below about -50%; inconclusive = no clear call, values can overlap the other calls; note: % is set by controls: 0 for no effect and ±100 for the full control effect; mostly tested at two doses, the higher about 12 µM
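Cells expressing the human receptor were seeded at 1500 cells/well, incubated overnight at 37 degrees C in 5% CO2, then exposed to library compounds with dopamine controls for 90 minutes at 37 degrees C before luminescent detection.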
D3 ag: agonists of human D3 dopamine receptor; P35462; D3R DiscoveRx beta-arrestin cells, luminescence, 90 min; max activation, %; hit rate 0.58% among 410,000; AID 652048; in the data active = max activation above about 30%; note: 0% is about no effect; mostly tested at two doses, the higher about 12 µM
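Agonist mode: compounds and dopamine controls were applied to plated cells for 90 min at 37 degrees C after an overnight attachment at 1500 cells/well. Luminescent read-out followed 30 - 60 minutes at room temperature with DiscoveRx detection reagent.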
HEK293 tox: cytotoxicity in counter-screen for GLP-1R inverse agonists. HEK293 cAMP-luciferase reporter cells, luminescence, 24 h. hit rate 0.13% among 410,000. Potency, µM (titrated, usually from 38.3 µM), without a hit: at the highest dose activity change, negative = inhibition, most hits filed as inhibitors. AID 624418;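 note: loss of luciferase light is scored as toxicity; potency is the fitted concentration of half-maximal effect; % is set by controls: 0 for no effect and ±100 for the full control effect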
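A 23 nL compound transfer followed 12 hours of cell culture at 37 deg C; exposure then lasted 24 hr. Luciferase assay detection reagent was dispensed and plates read for luminescence after a 12 min room-temperature wait.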
GLP-1R inv ag: GLP-1 receptor (human) inverse agonism; Potency, µM (highest dose often 38.3 µM), without a hit: at the highest dose activity change, negative = inhibition, actives largely listed as inhibitors; P43220; HEK293 GLP-1R CRE-luciferase, luminescence, 24 h; GLP-1R form is constitutively active; hit rate 1.6% among 410,000; note: potency is the fitted concentration of half-maximal effect; % is set by controls: 0 for no effect and ±100 for the full control effect; nearly all actives have a fitted effect of over 55% in size
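qHTS in 1536-well format: reporter HEK293 cells expressing constitutive GLP-1R activity in DMEM + 10% Nu serum, 24 hr with compounds at 37 deg C, luminescence read after 12 min with detection reagent.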
WRN helicase inh: WRN helicase (human) inhibition. WRN helicase unwinding, fluorescent forked duplex, kinetic. hit rate 0.46% among 360,000. Potency, µM (highest dose often 114 µM), for inactives: top-dose activity change, negative = inhibition, usual class: inhibitors. Q14191; note: potency is the fitted concentration of half-maximal effect; % is set by controls: 0 for no effect and ±100 for the full control effect; nearly all actives have a fitted effect of over 55% in size
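WRN at 20 nM final preincubated with compound 15 min at room temperature; reaction started with 100 nM fluorophore/quencher forked duplex oligonucleotide and 2 mM ATP final. Unwinding followed kinetically by red fluorescence (ex 525, em 598 nm).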
PLK1 PBD inh: inhibitors of human PLK1 polo-box domain binding; P53350; Potency, µM, for inactives: max response, negative = inhibition, usual class: inhibitors; hit rate 2.8% among 360,000; Plk1 PBD binding of FITC phosphopeptide, fluorescence polarization; AID 720504; note: potency is the fitted concentration of half-maximal effect; series mostly up to about 57 µM; % is set by controls: 0 for no effect and ±100 for the full control effect; nearly all actives have a fitted effect of over 65% in size
Target sequence (P53350 whole entry, looked up, the tested form may be a part): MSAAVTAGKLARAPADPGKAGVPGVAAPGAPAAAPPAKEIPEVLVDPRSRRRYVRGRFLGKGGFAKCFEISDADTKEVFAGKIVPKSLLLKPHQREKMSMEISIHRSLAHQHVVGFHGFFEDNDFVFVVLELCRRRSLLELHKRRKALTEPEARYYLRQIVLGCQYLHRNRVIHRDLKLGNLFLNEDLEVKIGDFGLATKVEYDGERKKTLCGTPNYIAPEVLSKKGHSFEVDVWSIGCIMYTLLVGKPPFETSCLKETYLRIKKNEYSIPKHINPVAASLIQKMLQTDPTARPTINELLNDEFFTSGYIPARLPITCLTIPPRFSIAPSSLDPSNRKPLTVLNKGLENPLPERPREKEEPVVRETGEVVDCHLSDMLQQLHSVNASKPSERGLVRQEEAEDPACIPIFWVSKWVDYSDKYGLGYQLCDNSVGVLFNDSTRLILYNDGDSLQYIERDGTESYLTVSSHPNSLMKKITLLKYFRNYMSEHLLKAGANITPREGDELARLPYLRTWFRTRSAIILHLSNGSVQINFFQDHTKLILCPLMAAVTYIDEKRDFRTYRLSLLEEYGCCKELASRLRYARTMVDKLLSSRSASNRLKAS
IL2 activator: activates IL-2 in a cell-based reporter assay | hit rate 0.065% among 360,000 | activation, % (series mostly up to about 46 µM) | IL-2 activation reporter assay, cell-based qHTS; stimulated with anti-CD3/CD4/CD28 beads; in transgenic mouse T cells | AID 652025; in the data active = activation above about 50%; inconclusive = mostly about 30% to 49%; note: 0% is about no effect
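Unstimulated transgenic mouse T cells, 750 per well, received compound and, after 60 minutes, anti-CD3/anti-CD4 bead plus anti-CD28 stimulation. EGFP and DsRed were quantified after 18 hours.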
Active calls of the source: *; i = inactive; ? = inconclusive; / = not tested or not shown; & = joins results of further samples; [ ] = another dose, or the depositor's remark. Unless noted, calls come from the whole dose curve; as a rule, active = well fitted curve in the direction sought with a large enough effect; inconclusive = small, poorly fitted or top-dose-only effect, or another doubt; inactive = no such curve, though single readings can be large; an effect the other way counts as inactive or inconclusive. Only part of the results is shown; the hit share may differ from the screen's.

SMILES | GLP-1R agonist | DRD3 antagonist | D3 ag | HEK293 tox | GLP-1R inv ag | WRN helicase inh | PLK1 PBD inh | IL2 activator
CC1(C)C(=O)Nc2ccccc2N1C(=O)CSc1nc(-c2ccccc2)cs1 | 0% | 22 | 4 | 5% | 20% | -18% | -7% | -4.4
O=S(=O)(NCc1ccc2c(c1)OCO2)c1ccc(Cl)s1 | -3% | -3 | -1 | 13% | ? | -10% | -7% | 0.5
N#Cc1ccsc1NC(=O)CSc1nncs1 | -8% | 12 | 3 | 2% | -24% | -11% | ? | -0.1
COCCn1c(=O)[nH]c2cc(C(=O)N3CCN(Cc4ccc5c(c4)OCO5)CC3)ccc2c1=O | -1% | -1 | 3 | 1% | 9% | -4% | -1% | -0.4
O=C(Nc1cc(S(=O)(=O)Nc2ccccc2F)ccc1Cl)c1ccc(F)cc1F | 15% | -5 | -3 | -4% | -24% | -10% | -7% | -0.8
CCc1cccc(CC)c1NC(=O)CNCc1cccs1 | 2% | -25 | -11 | -4% | -13% | -5% | -5% | 0.6
Cc1cc(=O)[nH]c(SCC(=O)Nc2ccc(S(N)(=O)=O)cc2)n1 | -4% | 12 | 2 | -2% | 19% | -19% | -16% | -2.1
O=C(NCc1cccs1)C1CC(=O)N(c2ccc(F)cc2)C1 (centres undefined) | 4% | 8 | 0 | 2% | 6% | -3% | 1% | -0.9
COc1ccc(/C(O)=C2/C(=O)C(=O)N(CCCC(=O)O)C2c2ccc(OC)c(OC)c2)cc1 (centres undefined) | -9% | 0 | 3 | -1% | 6% | -8% | 1% | -0.8
C=CCn1c(COc2ccccc2)nnc1SCC(=O)Nc1ccc(S(N)(=O)=O)cc1 | 0% | ? | 1 | 17% | 0% | -7% | -6% | -0.9
COc1ccccc1NC(=S)N1CC(C)(C)C1=O | -4% | 4 | -8 | -14% | -5% | 1%[57.1 µM] | -1% | 1.7
CCOC(=O)N1CCC(NCCNC(=O)c2ccco2)CC1 | 2% | -21 | -11 | -6% | 7% | -1% | -5% | -0.1
Nn1c(SCC(=O)Nc2ccc(S(N)(=O)=O)cc2)nnc1C(F)(F)F | 0% | -13 | 5 | -2% | -3% | -1% | 5% | -0.1
COc1cc(C)c(S(=O)(=O)NCc2ccc3c(c2)OCO3)cc1C | 13% | -28 | -12 | 4% | -18% | 3% | -20% | -3.4
COc1ccc(CC2(CO)CCN(Cc3cnn(-c4ccccc4OC)c3)CC2)cc1 | 11% | -89* | -19 | -5% | ? | -8% | -11% | -0.8
O=C(COc1ccc(-c2nnco2)cc1)NC1CCS(=O)(=O)C1 (centres undefined) | -2% | ? | -4 | 2% | 18% | -3% | -3% | 0.6
N#Cc1ccsc1NC(=O)COc1ccc(-c2nnco2)cc1 | 0% | ? | 0 | 0% | 12% | ? | -22% | -1.2
Cc1cccc(N2CCN(C3C(=O)Nc4ccccc4-n4nnnc43)CC2)c1C (centres undefined) | / | 24 | 3 | -26% | ? | -4% | -12% | -0.8
CSc1nc(-c2ccco2)nn1C(=O)c1ccccc1Cl | -1% | 52 | 33* | ? | -1% | 2% | ? | 3.4
COc1ccc(CNc2nc(-c3cccnc3)nn2C(=O)c2ccco2)cc1 | -3% | -8 | -1 | 73%[activator] | 0% | -13% | -13% | 4.7
CCOC(=O)Cn1c(=O)cnc2ccccc21 | -5% | 11 | 4 | -13% | 5% | 3% | -1% | 1.8
CC(C)[C@H](NC(=O)c1c(F)cccc1F)C(=O)Nc1cccc(Br)c1 | 6% | 1 | 0 | 2% | -7% | -1%[57.1 µM] | -3% | -2.0
FC(F)(F)c1cnc(Oc2cccc3ccccc23)c(Cl)c1 | 0% | -3 | -4 | 7% | -26% | -3% | 5% | -3.9
Cc1cccc(N2CC(C(=O)Nc3nnc(SCC(=O)NCC4CCCO4)s3)CC2=O)c1 (centres undefined) | -2% | -7 | -3 | 19% | -8% | ? | ? | -0.8
O=C(CSc1nccc(=O)[nH]1)Nc1ccc(Br)c(Cl)c1 | -3% | 19 | -4 | 2% | 4% | -9% | -11% | 0.9
CCc1ccc(N2CC(C(=O)NC3=NCCS3)CC2=O)cc1 (centres undefined) | 7% | -5 | -6 | 2% | 11% | 6% | -9% | -3.1
CC1=N/C(=C\c2ccc(OC(C)C)cc2)C(=O)N1c1ccc(C(=O)O)cc1 | -1% | 11 | 1 | -11% | 8% | 4% | ? | -1.1
CCc1nnc(NC(=O)Cc2cccs2)s1 | -1% | 12 | 8 | 6% | 16% | ? | -20% | 1.2
Cc1ccccc1N1CC(C(=O)Nc2nnc(SCCC3OCCO3)s2)CC1=O (centres undefined) | -13% | 12 | 7 | 4% | 25% | ? | 21µM* | 2.0
CCc1nnc(NC(=O)CSc2nnc(-c3ccc(OC)cc3)n2C)s1 | -5% | 7 | 1 | -11% | 11% | 2% | -10% | 0.1
CNC(=O)CSc1nnc(-c2ccco2)n1-c1ccc(C)cc1 | 2% | -2 | 3 | 1% | 30% | 3% | -5% | -1.1
Cc1ccc(Cn2ccc(NC(=O)c3noc4c3CCCCC4)n2)cc1 | -1% | 1 | 9 | -12% | -15% | -11% | -3% | -0.1
CC1(OC(=O)c2cccs2)C(=O)C=C2C=C(C3CC3)OC=C2C1=O (centres undefined) | -1% | -17 | 5 | -8% | 10% | -12%[11.6 µM] | -16% | 0.2
CC(C)c1ccc(NC(=O)CN(Cc2ccccc2)S(C)(=O)=O)cc1 | 13% | -5 | 1 | 57%[activator] | ? | -15% | -5% | 0.7
Cc1nnc(SCC(=O)Nc2sccc2C#N)n1Cc1ccccc1 | 3% | 1 | 0 | -12% | 0% | -26% | -11% | 6.6
O=C(COc1ccc(F)cc1)Nc1nc(-c2ccccn2)cs1 | -4% | -2 | -1 | ? | -13% | -7% | ? | -2.9
CC(C)CNC(=O)CCCc1ccccc1 | 0% | 26 | -6 | -3% | 10% | -20%[57.1 µM] | -8% | -1.4
CCOC(=O)Cn1c2ccccc2c2nc(C)sc21 | 1% | 2 | 7 | ? | ? | 0% | 0% | -0.2
COCCCn1c(=N)c(C(=O)NCC2CCCO2)cc2c(=O)n3ccccc3nc21 (centres undefined) | -2% | 0 | -2 | i | 24% | -7% | -10% | 0.2
Cc1ccc(N2CC(C(=O)Nc3nnc(SCC(N)=O)s3)CC2=O)cc1C (centres undefined) | -16% | 0 | -19 | 20% | 4% | ? | ? | -2.2
CC1CCCN(C(=O)c2cc(-c3cccs3)nc3ccccc23)C1 (centres undefined) | 23% | 17 | 4 | -5% | ? | 1% | -15% | -0.6
O=C(COc1ccc([N+](=O)[O-])cc1)Nc1nc(-c2ccccn2)cs1 | 8% | -4 | 9 | -16% | 5% | -6% | -25% | -0.3
COc1ccc(CCNc2nc3ccc(C)cc3n3cnnc23)cc1OC | -1% | 13 | 5&1 | -1%&-17% | ? | -1% | -6% | 0.2
CS(=O)(=O)N1CC(C(=O)NC2CC2)Oc2ccc(Cl)cc21 (centres undefined) | -9% | -23 | -4 | 3% | -7% | 3% | -8% | -1.7
Cc1ccc(NC(=O)COC(=O)Cc2cccs2)c(Br)c1 | 2% | 8 | 11 | 0% | 1% | -11% | 4% | -2.4
CCOC(=O)c1cc(-c2ccccc2)sc1NC(=S)Nc1cccc(C)n1 | -1% | ? | -7 | -3% | -7% | 2% | -1% | 1.0
Cc1[nH]c(=O)[nH]c(=O)c1S(=O)(=O)NCCOC12CC3CC(CC(C3)C1)C2 | -9% | 5 | 0 | -13% | 3% | 11% | 0% | 2.6
O=C1Nc2ccccc2-n2nnnc2C1N1CCN(c2ccccn2)CC1 (centres undefined) | / | 0 | -12 | 0% | 12% | 0% | -13% | -0.4
O=C(O)c1ccc(NCc2cccs2)cc1 | -7% | 23 | 6 | 0% | 8% | 2% | -4% | 0.1
O=C(CN1c2cccc3cccc(c23)S1(=O)=O)Nc1ccc(S(=O)(=O)N2CCOCC2)cc1 | 2% | -17 | -3 | 8% | 5% | ? | -13% | -0.1
O=C(COC(=O)c1c2c(nc3ccccc13)CCCCC2)NCc1ccc2c(c1)OCO2 | 6% | 19 | -6 | 12%[1.53 µM] | ? | -34%[57.1 µM] | 7% | -0.4
Cc1cccc(-n2c(SCC(N)=O)nnc2-c2ccco2)c1 | -1% | -6 | -1 | 3% | 14% | 8% | -15% | -0.2

Among those listed so far, these have a halogen:
SMILES | GLP-1R agonist | DRD3 antagonist | D3 ag | HEK293 tox | GLP-1R inv ag | WRN helicase inh | PLK1 PBD inh | IL2 activator
O=S(=O)(NCc1ccc2c(c1)OCO2)c1ccc(Cl)s1 | -3% | -3 | -1 | 13% | ? | -10% | -7% | 0.5
O=C(Nc1cc(S(=O)(=O)Nc2ccccc2F)ccc1Cl)c1ccc(F)cc1F | 15% | -5 | -3 | -4% | -24% | -10% | -7% | -0.8
O=C(NCc1cccs1)C1CC(=O)N(c2ccc(F)cc2)C1 (centres undefined) | 4% | 8 | 0 | 2% | 6% | -3% | 1% | -0.9
Nn1c(SCC(=O)Nc2ccc(S(N)(=O)=O)cc2)nnc1C(F)(F)F | 0% | -13 | 5 | -2% | -3% | -1% | 5% | -0.1
CSc1nc(-c2ccco2)nn1C(=O)c1ccccc1Cl | -1% | 52 | 33* | ? | -1% | 2% | ? | 3.4
CC(C)[C@H](NC(=O)c1c(F)cccc1F)C(=O)Nc1cccc(Br)c1 | 6% | 1 | 0 | 2% | -7% | -1%[57.1 µM] | -3% | -2.0
FC(F)(F)c1cnc(Oc2cccc3ccccc23)c(Cl)c1 | 0% | -3 | -4 | 7% | -26% | -3% | 5% | -3.9
O=C(CSc1nccc(=O)[nH]1)Nc1ccc(Br)c(Cl)c1 | -3% | 19 | -4 | 2% | 4% | -9% | -11% | 0.9
O=C(COc1ccc(F)cc1)Nc1nc(-c2ccccn2)cs1 | -4% | -2 | -1 | ? | -13% | -7% | ? | -2.9
CS(=O)(=O)N1CC(C(=O)NC2CC2)Oc2ccc(Cl)cc21 (centres undefined) | -9% | -23 | -4 | 3% | -7% | 3% | -8% | -1.7
Cc1ccc(NC(=O)COC(=O)Cc2cccs2)c(Br)c1 | 2% | 8 | 11 | 0% | 1% | -11% | 4% | -2.4

Source: PubChem BioAssay (National Center for Advancing Translational Sciences (NCATS))
